AID504770 – growth inhibitors of E. coli YBA685 in a screen for V. cholerae RctB (chromosome II replication) inhibitors; E. coli YBA685 rctB-dependent plasmid, OD600 growth, 3 h; hits give low values; z-score (test concentration not listed); hit rate 0.27% among 130,000; AID 504770;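 active = z-score under -2 on both plates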;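 note: wells of about 30 µL received 100 nL stock; score is relative to mean and SD of the test wells; the first replicate is given; strong numbers were not always called active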
Ba CapD inh – CapD enzyme inhibition. purified CapD enzyme, fluorescence intensity read-out; hits give low values; some hits fall short of the stated cut. z-score (concentration not given with the values). hit rate 0.23% among 140,000. AID 492967;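 active = z-score under -4 in either of two replicates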;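 note: stock transfer was 100 nL into about 40 µL; score is relative to mean and spread of the plate; one replicate is shown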
* = called active by the depositor; . = no result given; & = joins results of further samples.

Preview (three entries):
SMILES	AID504770	Ba CapD inh
CCN(CC)C(=O)CSc1ncc(CO)n1Cc1ccccc1	0.95	-0.28
CCn1c(SCC(=O)OCC(=O)Nc2ccc3ccccc3c2)nnc1-c1cccs1	0.15	.
COc1cc2nc(CSc3ccc(Cl)cc3)n(CC#N)c(=O)c2cc1OC	1.6	.

The whole of this part (from the top)
SMILES	AID504770	Ba CapD inh
CCN(CC)C(=O)CSc1ncc(CO)n1Cc1ccccc1	0.95	-0.28
CCn1c(SCC(=O)OCC(=O)Nc2ccc3ccccc3c2)nnc1-c1cccs1	0.15	.
COc1cc2nc(CSc3ccc(Cl)cc3)n(CC#N)c(=O)c2cc1OC	1.6	.
COc1ccc(C2(O)CCN(CC(=O)NC(C)C)CC2)cc1	-0.45	.
CCn1c(O)c(C(C)=Nc2ccccc2C(=O)NC2CC2)c(=O)n(CC)c1=S	2.5	.
Cc1c(C(=S)NC(=O)C2CC2)c(=O)n(-c2ccccc2)n1C	-0.75	.
CN(C)c1ccc(-c2nc3ccc(C(=O)O)cc3s2)cc1	-0.1	67
COc1ccc(NC(=O)c2ccn[nH]2)cc1	-0.4	0.39
O=C(CCn1c(=O)c2cccn2c2cccnc21)N1CCCCCC1	-0.05	6.7
COc1ccc(CN(C(=O)/C=C\C(=O)O)C2CC(=O)N(c3ccccc3)C2=O)cc1 (stereo not given)	-0.75	0.35
O=C(OC1(C#CCN2CCCCC2)CCCCC1)c1ccccc1	-0.95	-0.07
COc1ccc(C(=O)COC(=O)C23CC4CC(CC(C4)C2)C3)cc1	1.9	0.04

Single records, as listed above. Screens in order: AID504770, Ba CapD inh
COc1ccc(C(=O)COC(=O)C23CC4CC(CC(C4)C2)C3)cc1 in the list: 1.9, 0.04
CCn1c(O)c(C(C)=Nc2ccccc2C(=O)NC2CC2)c(=O)n(CC)c1=S in the list: 2.5, .
CN(C)c1ccc(-c2nc3ccc(C(=O)O)cc3s2)cc1 in the list: -0.1, 67
CCN(CC)C(=O)CSc1ncc(CO)n1Cc1ccccc1 in the list: 0.95, -0.28

Carrying on:
SMILES	AID504770	Ba CapD inh
C=CCn1c(=O)c2ccccc2c2ccccc2c1=O	0.55	0.57
O=C(c1cccs1)N1CCc2c([nH]c3ccccc23)C1c1ccccc1 (stereo not given)	.	0.91
Cc1nn(CC(=O)N2CCCC2)c(=O)c2cc3ccccc3n12	0.8	13
Cc1occc1-c1nnc2sc(-c3cccc(F)c3)nn12	0.15	.
CC(C)(C)C(=O)n1cc(-c2ccncn2)c(-c2cccnc2)n1	.	-0.64
CN(C)S(=O)(=O)c1cccc2c(S(=O)(=O)N(C)C)cccc12	2.4	-0.74
O=c1[nH]nc(CNOCc2ccc(Cl)cc2Cl)c2ccccc12	.	-0.73
Cc1cc(NCc2cccc(Cl)c2Cl)no1	.	-0.7
Cc1cccc(NC(=O)Cc2coc3ccc(C)cc23)c1	-0.8	-0.89
CCCn1cc(C(CC(=O)O)C(=O)O)c2ccccc21 (stereo not given)	-0.1	-0.015
Cc1nc2n(CC(=O)N3CCCCC3)c3ccccc3n2n1	-1.4	0.24
C[C@]1(NC(=O)CN2CCCCC2)CCCCC1c1ccc(O)cc1 (stereo not given in full)	0	0.46
Cc1ccc(-c2nc(SCc3cccc(C)c3)c(C#N)c3c2CCCC3)cc1	.	0.71
Nc1nonc1C(=O)OCC(=O)c1ccc(Cl)cc1	-0.15	.
NC1C2CC3CC(C2)CC1C3 (stereo not given)	-0.7	.
COc1ccc(CNC(=O)CSc2nc3ccc(OC)cc3[nH]2)cc1	.	0.23
Cc1cccc(N(C)Cc2cc(=O)n3oc(C)cc3n2)c1	0.7	0.29
O=C(Nc1ccc(F)cc1)c1cc(N2CCOCC2)nc2ccccc12	.	2.3
CCCCn1c(=NC(=O)c2ccccc2)c(C(=O)OCC)cc2c(=O)n3ccccc3nc21	.	0.68
O=C(Nc1ccc(-c2cnco2)cc1)c1ccc(F)cc1F	-0.4	14
Cc1ccccc1OCC(=O)Nc1ncccn1	-0.95	0.13
CCN(C(=O)C1CCC(C(=O)N(CC)c2ccccc2)CC1)c1ccccc1 (stereo not given)	-0.15	-0.06
CCN(CC)C(=O)c1sc2nc(C)nc(N3CCC(C)CC3)c2c1C	.	-0.13
COc1cc(C(=O)Nc2ccc(O)cc2)c2ccccc2n1	0.45	0.34
CCC(C)N(C(=O)c1c(F)c(F)c(F)c(F)c1F)C(C)CC (stereo not given)	-1.2	-0.11
Cc1nn(C(C)(C)C)c2c1C(c1ccccn1)C1=C(CC(C)(C)CC1=O)N2 (stereo not given)	-0.25	46
CC(/C=C/c1c[nH]c2ccccc12)=C\C(=O)O	0.1	-0.55
CCOC(=O)c1c(-c2ccccc2)n(Cc2ccccc2)c2ccc(O)c(CN(C)C)c12	-0.65	0.055
COC(=O)c1scc(C)c1NC(=O)C1CC1	0.1	0.71
Cc1ccc(C(=O)C2CCNCC2)cc1	3	-0.77
CC(C)c1ccc2[nH]c(O)c(N=NC(=O)c3nn(C)c(=O)c4ccccc34)c2c1	0.25	.
O=C1CCCN1C(=O)CSc1nc2sc3c(c2c(=O)n1Cc1ccco1)CCCC3	0.15	.
O=C(c1ccccc1)C(C(=O)N1CCCCC1)n1ccccc1=O (stereo not given)	-0.55	.
CCn1c(=O)c2cc(C(=O)N(Cc3ccco3)C3CCCCC3)sc2c2ccccc21	0.05	2.5
Cc1cc(C)c(N=C(N)NN)cc1C	-0.85	0.4
CC1CN(c2ccc(Cl)nn2)CC(C)O1 (stereo not given)	-1.5	-0.33

Exported field by field: entries from further up.
CC(/C=C/c1c[nH]c2ccccc12)=C\C(=O)O
- AID504770 = 0.1
- Ba CapD inh = -0.55
CCOC(=O)c1c(-c2ccccc2)n(Cc2ccccc2)c2ccc(O)c(CN(C)C)c12
- AID504770 = -0.65
- Ba CapD inh = 0.055
COC(=O)c1scc(C)c1NC(=O)C1CC1
- AID504770 = 0.1
- Ba CapD inh = 0.71
Cc1ccc(C(=O)C2CCNCC2)cc1
- AID504770 = 3
- Ba CapD inh = -0.77

The listing continues:
SMILES	AID504770	Ba CapD inh
CCOC(=O)c1cnc2ccc(OCC)cc2c1NC(C)CC (stereo not given)	-0.3	2.5
c1ccc2c(CNCCc3c[nH]c4ccccc34)cccc2c1	0.35	5.3
Cn1nccc1NC(=O)c1ccc(Cl)c(Cl)c1	-0.05	0.96
Cc1onc(-c2ccccc2)c1C(=O)N=C(N)c1ccc(Cl)cc1	-1.2	-0.23
COc1ccc(C(=O)N2CCn3cccc3C2c2ccccc2)cc1OC (stereo not given)	-0.9	.
Cc1cccc(N=c2scc(-c3cc4ccccc4o3)n2C2CC2)c1	2.4	.
CCOC(=O)CNC(=O)c1ccc([N+](=O)[O-])cc1	.	1.2
CCOc1ccc(-n2c(SCC)nc3c([nH]c4ccccc43)c2=O)cc1	1.3	-0.025
Brc1cccc(-c2cn3ccsc3n2)c1	1.5	-0.17
C=CCOc1ccc(CNn2cn[nH]c2=S)cc1	-0.05	.
COC(=O)C(Cc1c[nH]c2ccccc12)NC(=O)c1cncc(Br)c1 (stereo not given)	.	-0.51
Cc1oc(S(=O)(=O)N2CCCC2)cc1C(=O)Nc1ccccc1	-0.7	-1.1
COc1ccc2c(c1)-c1c(ssc1=S)C(C)(C)N2C(=O)CSc1nccn1C	.	-0.68
O=C1NC(=Nc2ccc(F)cc2)S/C1=C/c1ccc(N2CCCCCC2)o1	1	0.23
Cc1ccc(C(=O)OC(C)CN2CCN(C3=NS(=O)(=O)c4ccccc43)CC2)cc1 (stereo not given)	.	-1.4
Cc1cc(NC(=O)COCc2cc(-c3ccco3)on2)no1	-0.05	0.9
S=c1[nH]nc(-c2ccncc2)n1-c1ccc2c(c1)OCCO2	-0.95	-1.4
COC(=O)c1ccc(N2C(=O)/C(=C/c3ccc(OC)c(Br)c3)C=C2c2ccccc2)cc1	.	-0.13
O=C(O)COc1ccc2c(c1)C(=O)CC1(CCCCC1)O2	-0.2	11
CCNc1nc(NC(C)C)nc(OCCOC(C)=O)n1	-0.75	0.41
N#C/C(=C\c1ccc(C(F)(F)F)cc1)c1ccc(OCc2ccc(Cl)cc2)cc1	.	76
COc1ccc(C2(O)CN(c3cccc(C)c3C)C3=[N+]2CCCS3)c(F)c1 (stereo not given)	.	0.045
O=C(/C=C/c1ccco1)N/N=C/c1ccnc2ccccc12	.	0.92
O=C(O)C(Sc1nncc2ccccc12)c1ccccc1 (stereo not given)	.	0.19
COc1ccc(-c2cc(C(F)F)nc(NN)n2)cc1	0.25	-1.4
O=C(NCc1ccc2c(c1)OCO2)c1sc(=S)n2c1[nH]c(=O)c1ccccc12	1.7	0.39
COc1ccc(C)cc1NCc1ccccc1C	-0.4	0.21
O=C(OCC(=O)N1CCCC1)c1ccc(O)cc1	0.7	-0.03
CCOC(=O)N1CCC2(CC1)OC(=O)C(C)=C2C(=O)NCCc1ccc(Cl)cc1	0.05	0.23
Oc1c(C(c2ccccn2)N2CCCCC2)ccc2cccnc12 (stereo not given)	-0.05	-3.8
O=C(O)c1cccc2c(CN3CCN(C(c4ccccc4)c4ccccc4)CC3)c[nH]c12	2.5	.
Oc1ccccc1C(Nc1nccs1)c1ccc2cccnc2c1O (stereo not given)	1.1	-0.54
OC1(C#CC#CC2(O)CCCCC2)CCCCC1	-0.3	-0.98
CCOC(=O)c1sc(=S)n(-c2ccc([N+](=O)[O-])cc2)c1N	.	-0.57
COc1ccc(NC(=S)N2CCN(Cc3c(C)nn(C)c3C)CC2)cc1OC	1.5	-1
O=C(O)CSc1ccc(C(F)(F)F)cc1[N+](=O)[O-]	.	-0.4
CCCCN(C(=O)C1CCCO1)c1ccccc1 (stereo not given)	-0.4	-0.08
CCSCc1nc2ccccn2c1Br	1.1	2.6
Cc1[nH]ccc(=O)c1Oc1ncc(C(F)(F)F)cc1Cl	-0.5	-0.31
CCSc1nnc(NC(=O)CSc2c[nH]c3ccccc23)s1	1.6	-1.4
CCOc1cccc(/C=N/NC(=O)c2ccncc2)c1O	-0.4	-1.6
Cc1ccc(-c2cn(/N=C/c3ccc(Cl)cc3Cl)c(NC(=O)Nc3ccccc3Cl)n2)s1	.	-0.39
COc1ccccc1OCC(O)CO (stereo not given)	-0.15	0.05&-0.62
CC(C)Cn1c(SCCc2ccccc2)nnc1-c1cccc(S(=O)(=O)N2CCOCC2)c1	-0.45	.
C/C(=N\OCc1nnc(-c2cccs2)o1)c1cc2ccccc2o1	1.2	.
Cc1nn(-c2ccccc2)c(C)c1-c1nnc(C(F)(F)F)o1	-0.65	-0.37
CC1=C(C(=O)Nc2ccc(Br)cn2)C(c2cccc([N+](=O)[O-])c2)C2=C(CCCC2=O)N1 (stereo not given)	.	-0.65
Cc1nc(-c2ccc(NC(=O)C(C)(C)C)cc2)c(-c2ccccc2)o1	1.4	29
N#CCc1nnc(N2CCOCC2)n1-c1ccccc1	-0.05	.
Cc1cnc(=O)[nH]c1SCc1cccc(C(F)(F)F)c1	0	.
COc1ccccc1C=NC12CN3CN(CN(C3)C1)C2	0.55	12
O=c1c2c([nH]c3ccccc13)CCC2	1.9	.
CCOC(CNC(=O)c1ccc2ccccc2n1)(OCC)c1ccncc1	.	0.47
O=C(CSc1nc(N2CCCCC2)nc(N2CCCCC2)n1)N1CCc2ccccc21	0.95	0.4
COc1ccc(-c2noc(CSc3nnc(-c4ccncc4)n3CC(C)C)n2)cc1	1.1	0.005
O=C(NCCCc1ccccc1)C1c2ccccc2Oc2ccccc21	1.7	0.55
CCn1c(C)[n+](CC)c2ccc(S(N)(=O)=O)cc21	-0.75	-0.03
O=C1CCN(CC(=O)c2ccc3cc[nH]c3c2)CC1	-0.3	7.7
COc1ccc2cc(C(=O)NCc3ccccc3)c(=Nc3ccc(C(=O)O)cc3)oc2c1	.	2.8

Gathered by group: the entries above containing a nitro group on carbon
SMILES	AID504770	Ba CapD inh
CCOC(=O)CNC(=O)c1ccc([N+](=O)[O-])cc1	.	1.2
CCOC(=O)c1sc(=S)n(-c2ccc([N+](=O)[O-])cc2)c1N	.	-0.57
O=C(O)CSc1ccc(C(F)(F)F)cc1[N+](=O)[O-]	.	-0.4
CC1=C(C(=O)Nc2ccc(Br)cn2)C(c2cccc([N+](=O)[O-])c2)C2=C(CCCC2=O)N1 (stereo not given)	.	-0.65

Screening data as filed in PubChem BioAssay.
